CBX7 AlphaScr = CBX7 inhibition, primary AlphaScreen; O95931; AlphaScreen His6-CBX7 / biotin-H3K27me3 peptide binding; stronger effect = lower value; normalised signal (fraction of DMSO) (test concentration not listed); actives 1.1% (n = 66,000); AID 1224903; in the data active = normalised signal below about 0.5;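 also: 100 nL library stock added to about 20 µL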
Target sequence (O95931 whole entry, looked up): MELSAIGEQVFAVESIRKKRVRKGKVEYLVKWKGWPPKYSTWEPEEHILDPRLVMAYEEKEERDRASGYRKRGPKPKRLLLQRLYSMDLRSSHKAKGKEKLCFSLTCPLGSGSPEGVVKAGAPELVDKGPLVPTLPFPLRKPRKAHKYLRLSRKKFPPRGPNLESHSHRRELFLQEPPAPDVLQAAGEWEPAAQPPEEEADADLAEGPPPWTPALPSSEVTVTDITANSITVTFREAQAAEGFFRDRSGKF
CBX7 AlphaScr z-score = further read-out of CBX7 AlphaScr, marked with its call; z-score; measured here: z-score of CBX7 signal; some inactives read as strong as hits; reference of the scale not given here;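 same signal on another scale; lower means less binding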
Numbers without * were called inactive. This is a subset; the hit share may differ from the screen's.

Second line of a record: CBX7 AlphaScr	CBX7 AlphaScr z-score
O=C(c1ccc2c(c1)N(Cc1c(F)cccc1Cl)C(=O)CS2)N1CCOCC1
    0.994	-0.267
Cc1ccc(-c2n[nH]c(=O)c3ccccc23)cc1S(=O)(=O)N1CCC(Cc2ccccc2)CC1
    0.827	-1.65
COc1ccccc1N1CCN(C(=O)c2cc(-c3ccc(Cl)cc3)on2)CC1
    0.916	-0.111
Cc1cc(C(=O)N2CCC(Cc3ccccc3)CC2)on1
    0.955	-0.889
Cc1cccc(-c2nnc(SCC(=O)N3CCC(C)CC3)o2)c1
    1.22	3.35
Cc1ccc(C2CC(C(F)(F)F)n3nc(C(=O)Nc4ccc(C#N)cc4)cc3N2)cc1 (stereo not drawn)
    0.938	-1.2
O=C1Nc2ccccc2OC1CC(=O)N1CCN(c2ccccn2)CC1 (stereo not drawn)
    0.933	-0.389
CCC1=Nc2cc(C(=O)N3CCc4ccccc43)ccc2Sc2ccccc21
    0.824	-0.404
CCN1CCN(c2oc(COc3ccccc3)nc2C#N)CC1
    0.954	-0.285
CCOC(=O)C1CCN(C(C(=O)NC2CCCCC2)c2ccc(OC)cc2)CC1 (stereo not drawn)
    0.985	-0.662
COc1cccc(-c2cc(C(=O)Nc3ccn(Cc4ccc(C)cc4)n3)no2)c1
    0.976	-0.139
O=C(Nc1nnc(CCS(=O)(=O)c2ccc(Cl)cc2)s1)c1ccc(F)cc1
    1.05	2.26
COC(=O)CSc1nnc(-c2ccncc2)o1
    0.869	-2.47
COc1ccc(N2Cc3cccc(C(=O)Nc4ccc(CN5CCOCC5)cc4)c3C2=O)cc1
    0.868	-1.7
COc1ccc(NC(=O)CCn2ccnc2C)cc1Cl
    0.98	-0.461

In the list so far, these contain sulfur.
Second line of a record: CBX7 AlphaScr	CBX7 AlphaScr z-score
O=C(c1ccc2c(c1)N(Cc1c(F)cccc1Cl)C(=O)CS2)N1CCOCC1
    0.994	-0.267
Cc1ccc(-c2n[nH]c(=O)c3ccccc23)cc1S(=O)(=O)N1CCC(Cc2ccccc2)CC1
    0.827	-1.65
Cc1cccc(-c2nnc(SCC(=O)N3CCC(C)CC3)o2)c1
    1.22	3.35
CCC1=Nc2cc(C(=O)N3CCc4ccccc43)ccc2Sc2ccccc21
    0.824	-0.404
O=C(Nc1nnc(CCS(=O)(=O)c2ccc(Cl)cc2)s1)c1ccc(F)cc1
    1.05	2.26
COC(=O)CSc1nnc(-c2ccncc2)o1
    0.869	-2.47

Additional records follow.
Second line of a record: CBX7 AlphaScr	CBX7 AlphaScr z-score
CC1=C(C(=O)Nc2cccc(C)n2)C(c2ccsc2)C2=C(CCCC2=O)N1 (stereo not drawn)
    1.01	0.102
COc1ccccc1CNC(=O)Cc1cn(C)c2ccccc12
    0.918	-1.18
CC1CCCN(C(=O)CCCC2=NS(=O)(=O)c3ccccc3N2)C1 (stereo not drawn)
    1.07	1.45
CCCN(C(=O)CCc1nc(-c2ccc(C)cc2)no1)c1ccccc1C
    1.14	1.32
O=C(O)CCC(=O)N1CCc2cc(S(=O)(=O)N3CCC(Cc4ccccc4)CC3)ccc21
    0.954	-0.754
CCC(C)(C#CCN1CCOCC1)OCCOCc1ccccc1 (stereo not drawn)
    0.87	-1.41
Cc1nc(-c2ccc([N+](=O)[O-])cc2)c(C(=O)Nc2ccccc2Cl)s1
    0.896	-2.27
COc1ccccc1CN1C(=O)CN(C2CCCCCC2)C(=O)C1c1ccc(OC(C)C)c(OC)c1 (stereo not drawn)
    0.792	-2.1
O=C(Nc1ccc(F)cc1F)c1cnc2sccn2c1=O
    1.07	0.801
CCCCN(CCCNC(=O)CN1C(=O)COc2ccccc21)c1ccccc1
    0.898	-3.39
CCc1ccc(NC(=O)c2sc3ncn(CC(=O)Nc4ccc(C)c(Cl)c4)c(=O)c3c2C)cc1
    1.01	0.241
Cc1ccc(NC(=O)C2(S(=O)(=O)c3ccc(Cl)cc3)CC2)cc1F
    1.08	2.07
Cc1cccc(NS(=O)(=O)c2c(C)noc2C)c1
    1.02	0.708
O=C(NCCCN1CCCC1=O)c1ccc2c(=O)n(CCc3ccccc3)c(=O)[nH]c2c1
    0.973	-0.821
COc1ccc(CNC(=O)c2cc(-c3ccc(Cl)c(Cl)c3)on2)cc1
    1.13	4.21
CCn1c(C(=O)NCc2cccnc2)cc2sc(Cl)cc21
    1.01	0.346
Cc1ccc(NC(=O)Cn2c(Cc3ccccc3)nc3sc4c(c3c2=O)CCCC4)cc1Cl
    0.999	-0.0255
COc1cc(OC)cc(-c2nc(-c3ccc(C)cc3)no2)c1
    1.15	0.181
COc1ccc(-n2c(-c3ccc(C)cc3)cc3c2CC(C)(C)CC3=O)c(OC)c1
    0.272*	-7.22*
O=c1cc(-c2ccc3c(c2)OCO3)[nH][nH]1
    1.06	1.59
Cc1cc2c(cc1C)NC(CC(=O)NC(C)c1ccccc1)C(=O)N2 (stereo not drawn)
    0.998	-0.0384
OCCCNc1ncnc2c1c(-c1ccccc1)cn2-c1cccc(C(F)(F)F)c1
    0.891	-3.11
Cc1ccc(CN2C(=O)C(O)(CC(=O)c3ccccn3)c3cc(Cl)ccc32)cc1 (stereo not drawn)
    0.527	-0.627
CCc1ccc(N2CC(c3nc4ccccc4n3CCCOc3ccccc3OC)CC2=O)cc1 (stereo not drawn)
    0.872	-2.91
CCc1c(C(=O)OC)nnn1-c1nonc1N
    0.954	-0.34
O=C(CC1(O)C(=O)Nc2ccccc21)c1ccc(F)cc1 (stereo not drawn)
    0.995	-0.0683
O=C(O)c1[nH]c2ccc(Cl)cc2c1CC(=O)N1CCCC1
    0.953	-1.41
CCCCOc1ccc(C(=O)N2CC(=O)Nc3ccc(F)cc3C2c2ccccc2)cc1 (stereo not drawn)
    1.02	0.0951
O=c1c2ccccc2nc(-c2ccccc2F)n1Cc1c(F)cccc1Cl
    0.989	-0.183
CCSc1nnc(-c2ccc(Cl)cc2Cl)o1
    1.06	0.627
Cc1nc2c(C(=O)NC3CCCc4ccccc43)cnn2c(C)c1Cc1ccc(Cl)cc1 (stereo not drawn)
    0.98	-0.598
Cc1cc(C)c(NC(=O)Nc2ccc3snnc3c2)c(C)c1
    0.999	-0.0229
Clc1ccc(Nc2ncnc3c2cnn3Cc2ccccc2)cc1
    0.673	-1.29
Cc1ccc2c(c1)N(CC(=O)NCCc1ccc(Cl)cc1)C(=O)CO2
    1.03	0.758
CCOc1ccccc1C(=O)Nc1ccc(C)cc1C
    1.17	0.294
CCc1ccc(-c2nc(SCC(=O)Nc3nccs3)c(-c3ccc(C)cc3)[nH]2)cc1
    0.812	-3.22
Cc1nc2cc(-c3ccccc3)nn2c(C)c1CCC(=O)NC(C)c1cccs1 (stereo not drawn)
    1.15	1.55
COc1ccc(-c2cc(C(=O)Nc3c(C)nn(Cc4ccccc4Cl)c3C)no2)cc1
    1.1	0.578
Cc1ccc([N+](=O)[O-])cc1-c1[nH]c(-c2ccc(F)cc2)nc1-c1ccccc1
    0.479*	-0.518*
CC(C)CCNC(=O)CCn1c(=O)[nH]c2ccsc2c1=O
    1.08	0.574
CC1CCCC(C)N1CCNC(=O)CCN1C(=O)COc2ccccc21 (stereo not drawn)
    1.04	0.602
CCC1CCCCN1C(=O)c1c(-c2c(F)cccc2Cl)noc1C (stereo not drawn)
    1.04	0.363
Cc1ccc(Cn2c(=O)c(CCC(=O)NCc3ccccc3)nc3ccccc32)cc1
    0.799	-0.792
COc1ccc(-c2cc(C(=O)NCCc3ccccc3)c3cc(C(C)C)ccc3n2)cc1
    1	0.0026
CCn1cc(C(=O)Nc2cc(Cl)ccc2OC)c(=O)c2ccc(C)nc21
    1.09	0.982
CN(C(=O)Cn1ncc2c1-c1ccccc1OC2)c1ccccc1Cl
    0.894	-3.06
N#Cc1ccc(-c2csc(NC(=O)c3ccc(Cl)cc3)n2)cc1
    1.16	3.61
COc1ccc(-c2cc3nc(C)cc(=O)n3[nH]2)cc1
    0.896	-1.93
COc1ccc(-c2cc(C(=O)NCc3cnn(C)c3)c3ccccc3n2)cc1OC
    1.25	3.25
Cc1ccccc1OCC(=O)Nc1nc(-c2ccccc2)cs1
    1.09	0.163
Cc1c(C(=O)Nc2ccc3c(c2)OCO3)sc2ncn(Cc3ccccc3F)c(=O)c12
    1.01	0.0475
COC(=O)CNC(c1ccccc1Cl)c1cc(Br)ccc1NC(=O)c1ccccc1Cl (stereo not drawn)
    1	0.11
Cc1cccc(-c2noc(COc3ccc(Cl)cc3C)n2)c1
    1.7	4.56
COc1ccc(-c2nn(C)c(=O)c3ccccc23)cc1CNS(=O)(=O)c1ccc(C)cc1
    0.938	-1.57
CC(O)(Cc1oc2c(Cl)cc(Cl)cc2c1N1CCOCC1)C1CC2C=CC1C2 (stereo not drawn)
    0.937	-1.56
Nc1nc2ccc(C(=O)NC3CCC(C(=O)O)CC3)cc2s1 (stereo not drawn)
    1.05	0.882
CCCNC(=O)c1ccc2c(c1)nc(C)n2-c1ccc(F)cc1F
    0.97	-0.803
Cn1c(=O)c(C(=O)Nc2nc(-c3ccccc3)cs2)c(O)c2ccccc21
    1.02	0.358
N#Cc1cccc(NC(=O)Cn2ncc3c2-c2ccccc2OC3)c1
    0.963	-1.07
Cc1c(CNCCc2ccc(Cl)cc2)c(C(=O)O)c(C)n1Cc1ccccc1
    1.07	2.44

Further records
Second line of a record: CBX7 AlphaScr	CBX7 AlphaScr z-score
CCN(c1ccc(C)c(C)c1)S(=O)(=O)c1ccc2c(c1)CC(C)N2C(C)=O (stereo not drawn)
    1.08	2.33
COC(=O)c1ccc(C2Nc3ccc4ncccc4c3C3=C2C(=O)CC(C)(C)C3)cc1 (stereo not drawn)
    0.962	-0.45
CC1CCC(NC(=O)C2CCN(c3nnc(-n4cccc4)s3)CC2)CC1 (stereo not drawn)
    0.941	-0.621
Cc1cc(C)c2nc(Nc3nc4ccccc4c(=O)[nH]3)nc(C)c2c1
    0.929	-1.97
COc1cc2c(cc1OC)C1(C)N(CC2)C(=O)OC12CC(C)(C)NC(C)(C)C2 (stereo not drawn)
    1.05	0.681
COc1cc2c(cc1OC)C(C(=O)NCc1ccc(F)cc1)C(c1cccnc1)N(C)C2=O (stereo not drawn)
    1.13	1.95
O=C(Nc1cccs1)NC1CCCc2ccccc21 (stereo not drawn)
    0.968	-1.47
CCCn1c(C2CC(=O)N(c3ccc(CC)cc3)C2)nc2ccccc21 (stereo not drawn)
    1.07	2.9
COc1ccccc1OCC(=O)Nc1cc(-c2nc3ccccc3[nH]2)ccc1C
    1	0.0897
COc1ccc(-c2nn(C)c3sc(C(=O)Nc4ccc5c(c4)OCCO5)cc23)cc1OC
    0.938	-1.74
Cc1onc(-c2ccccc2)c1C(=O)Nc1ccc(C(N)=O)cc1
    1.04	1.59
Cc1cc(C)cc(NC(=O)C(Cc2ccccc2)NS(=O)(=O)c2ccc3c(c2)CCC(=O)N3)c1 (stereo not drawn)
    1	0.0813
CSc1oc(-c2cccs2)nc1S(=O)(=O)c1ccc(C)cc1
    0.987	-0.337
Cc1ccc(-c2noc(-c3ccccc3F)n2)cc1
    1.35	10.5
O=C(NCCN1CCOCC1)C(Sc1ccccc1)c1ccccc1 (stereo not drawn)
    0.981	-0.519
Cc1nc2cc(-c3cccc(F)c3)nn2c(C)c1CCC(=O)Nc1ccccc1
    0.966	-0.838
Cc1ccc(NC(=O)c2nccnc2C(=O)O)cc1C
    0.653	-4.46
COC(=O)C1=C(C)NC(=O)NC1c1ccc(O)c(OC)c1 (stereo not drawn)
    0.976	-0.256
CC(=O)N1CCc2cc(S(=O)(=O)NC(CC(C)C)C(=O)Nc3ccc(C)cc3)ccc21 (stereo not drawn)
    0.984	-0.209
CCC(=O)Nc1cccc(-c2nc3ncccc3o2)c1
    0.938	-2.3
O=C(Nc1cccnc1)c1ccc2c(c1)NC(=O)c1ccccc1S2
    1.08	2.23
CSCC[C@@H]1NC(=O)[C@H](Cc2cccc3ccccc23)NC1=O
    1.01	0.0307
O=C(Nc1cccnc1Cl)c1cc(-c2ccc(O)cc2)on1
    0.96	-1.35
CC1c2nc3ccccc3n2C(CC(=O)NCc2ccc(F)cc2)C(=O)N1Cc1ccccc1 (stereo not drawn)
    0.934	-1.01
CC1(C)Cc2nc3sc4c(=O)n(Cc5ccccc5)cnc4c3cc2CO1
    1.11	1.15
Cc1c(C(=O)Nc2ccccc2Br)oc2ccc(S(=O)(=O)N3CCCC3)cc12
    0.9	-2.27
CCOC(=O)N1CCC(NC(=O)C2CCN(Cc3nc(-c4ccc(OC)cc4)oc3C)CC2)CC1
    1.05	0.687
Cc1ccc(-c2csc(NC(=O)CN3CCCCC3)n2)cc1
    0.965	-0.254
O=C(Cn1nc(Cc2cccnc2)c2ccccc2c1=O)NCCCN1CCc2ccccc2C1
    1.04	0.0588
Cc1ccc(-c2ccc(CCC(=O)O)n2-c2ccc(F)cc2)cc1
    1.05	1.51
O=C(Nc1cccnc1Cl)c1ccc2c(=O)n3c(nc2c1)CCCCC3
    0.859	-2.32
CCNC(=O)CCn1nc(-c2ccc(Cl)cc2)c2ccccc2c1=O
    1.03	0.833
CCOc1ccc(C(=O)c2cn(Cc3cccc(OC)c3)c3ccc(C)cc3c2=O)cc1
    0.679	-3.07
CCOc1cc(-c2cccs2)cc(=O)c2c(C)oc(C)c12
    0.741	-0.527
Cc1cccc(N2CC(c3nc4ccccc4n3Cc3ccccc3)CC2=O)c1C (stereo not drawn)
    1.02	0.127
O=C(CCc1ccccc1)Nc1nc(-c2ccc(Cl)c(Cl)c2)cs1
    1.39	1.09
CCOc1ccc2c(c1)c(=O)c(S(=O)(=O)c1ccccc1)cn2CC(=O)Nc1cccc(OC)c1
    0.879	-3.96
Cc1cc(NCc2ccc(F)cc2)nc2cc(O)ccc12
    1.03	1.04

Screening data as filed in PubChem.
